Marburg entry inh: Marburg virus entry inhibition | Marburg virus pseudotyped entry inhibition, cell reporter; control for the full effect not named in the record; about a third of the inactives were read at about 46 µM | Potency, µM (doses to about 37.8 µM), for inactives: at the highest dose activity change, negative = inhibition, hits mostly inhibitors | 300,000 compounds, 1.8% hits | AID 540276; active = well fitted inhibition curve with a large enough effect; inconclusive = small, poorly fitted or top-dose-only effect, or effect the other way; inactive = flat fitted curve, though single readings scatter; tested in HEK293 cells; about a fifth of its hits are not listed in these tables; note: % is set by controls: 0 for no effect and ±100 for the full control effect; luciferase read-out
SARS PLP yeast: inhibitors of SARS-CoV papain-like protease in yeast | S. cerevisiae expressing SARS-CoV PLpro, growth rescue; control for the full effect not named in the record | 330,000 compounds, 0.19% hits | Potency, µM (series often up to 32.9 µM), for the others: top-dose activity, positive = growth rescue; note: 0% is about no effect; nearly all actives have a fitted effect of over 55% in size; growth read by luminescence after 48 h
LASV entry inh: inhibitors of Lassa virus binding or cell entry; Lassa virus pseudotype entry inhibition, cell reporter; control for the full effect not named in the record; Potency, µM (series often up to 37.9 µM), for the others: at the highest dose activity change, negative = inhibition, actives largely listed as inhibitors; 300,000 compounds, 1.2% hits; active means well fitted inhibition curve with a large enough effect; inconclusive means small, poorly fitted or top-dose-only effect, or effect the other way; inactive means flat fitted curve, though single readings scatter; tested in HEK293 cells; note: % is set by controls: 0 for no effect and ±100 for the full control effect; nearly all actives have a fitted effect of over 50% in size; luciferase read-out
Cruzain inh Det: blocks cruzain activity in presence of Triton detergent | P25779 | purified cruzain, Z-FR-AMC fluorescence, 0.01% Triton | Potency, µM, for inactives: max response, negative = inhibition, usual class: inhibitors | 200,000 compounds, 0.43% hits | AID 1478; active = well fitted curve in the direction sought with a large enough effect; inconclusive = small, poorly fitted or top-dose-only effect, or another doubt; inactive = no such curve, though single readings can be large; an effect the other way counts as inactive or inconclusive;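 note: plate controls were neutral wells for no effect and buffer without enzyme for full effect; nearly all actives have a fitted effect of over 40% in size; top concentration of the series not given in the record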
Target sequence (P25779 123-467 limits assumed): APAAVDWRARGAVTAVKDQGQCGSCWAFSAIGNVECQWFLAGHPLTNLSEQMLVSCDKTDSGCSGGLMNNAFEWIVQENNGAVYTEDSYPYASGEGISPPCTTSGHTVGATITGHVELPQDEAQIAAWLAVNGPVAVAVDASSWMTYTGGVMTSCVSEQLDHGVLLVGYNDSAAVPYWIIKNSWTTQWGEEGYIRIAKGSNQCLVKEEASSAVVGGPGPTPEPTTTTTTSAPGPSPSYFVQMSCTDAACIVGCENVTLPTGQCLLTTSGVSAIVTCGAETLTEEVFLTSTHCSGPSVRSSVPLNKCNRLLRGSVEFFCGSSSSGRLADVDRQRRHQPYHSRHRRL
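Compounds were screened in titration against cruzain (1.5 nM) with 0.01% Triton X-100 to counter colloidal aggregation. Activity was the AMC fluorescence increase over 60 s after adding 2 uM Z-FR-AMC at pH 5.5.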
NS1 inh: inhibitors of influenza NS1 protein function; AID 2326; 270,000 compounds, 0.4% hits; Potency, µM (doses to about 46.1 µM), inactives show top-dose activity, positive = more growth; S. cerevisiae slowed by influenza A NS1, growth recovery by OD600; note: actives are rising curves; nearly all actives have a fitted effect of over 50% in size
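Read-out: OD600 growth recovery of NS1-expressing budding yeast. Cells grown overnight at 30C in -URA glucose medium, washed, resuspended and diluted 1:100 in 2% galactose assay medium, pH 6.0. Same strain lacking NS1 served as positive control.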
Cruzain noTriton: blocks cruzain activity in detergent-free assay. P25779. 200,000 compounds, 2.3% hits. Potency, µM, inactives show max response, negative = inhibition, most hits filed as inhibitors. purified cruzain, Z-FR-AMC fluorescence, no detergent; active = well fitted curve in the direction sought with a large enough effect; inconclusive = small, poorly fitted or top-dose-only effect, or another doubt; inactive = no such curve, though single readings can be large; an effect the other way counts as inactive or inconclusive;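 note: plate controls were enzyme without inhibitor for no effect and buffer without enzyme for full effect; nearly all actives have a fitted effect of over 40% in size; top concentration of the series not given in the record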
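Purified cruzain at 1.5 nM, pre-incubated 15 min with compound at room temperature in 100 mM sodium acetate pH 5.5, 5 mM DTT, 0.00005% Triton X-100. Reaction started with 2 uM Z-FR-AMC; AMC fluorescence increase over 60 s gives rate.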
2A StopGo: lowers the luciferase signal of an FMDV 2A StopGo reporter; human cells with a luciferase reporter of 2A StopGo recoding; control for the full effect not named in the record; Potency, µM (doses to about 57.9 µM), inactives show at the top dose signal change, negative = less light; 410,000 compounds, 1.2% hits; AID 1159524; active = well fitted falling curve with a large enough effect; inconclusive = small, poorly fitted or top-dose-only effect; inactive = no such curve, though single readings can be large or run the other way; tested in HEK293T cells; note: % is set by controls: 0 for no effect and ±100 for the full control effect; nearly all actives have a fitted effect of over 45% in size; luciferase light after 4 h
RE007 growth inh: less growth of the S. pombe RE007 Vpr strain | 360,000 compounds, 0.21% hits | S. pombe RE007 Vpr strain, BacTiter-Glo ATP luminescence, 24 h; control for the full effect not named in the record | Potency, µM (doses to about 92.2 µM), inactives show at the top dose activity change, negative = less growth; active = well fitted falling curve with a large enough effect; inconclusive = small, poorly fitted or top-dose-only effect; inactive = no such curve, though single readings can be large or run the other way;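 note: % is set by controls: 0 for no effect and ±100 for the full control effect; nearly all actives have a fitted effect of over 50% in size; the assay follows cell death caused by Vpr and the record does not say whether a fall means rescue or toxicity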
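Fission yeast strain RE007, carrying one chromosomally integrated HIV-1 vpr copy, was seeded at OD 0.01 in PMG+AL medium with 23 nL pinned compound. After 24 h at 30 °C and 99% humidity, viability was read by BacTiter-Glo luminescence.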
Starred values were filed as active, the others as inactive; ? = inconclusive; . = no result given; & = joins results of further samples; [ ] = remark or other dose. Unless noted, calls come from the whole dose curve; as a rule, active means well fitted rising curve with a large enough effect; inconclusive means small, poorly fitted or top-dose-only effect; inactive means no such curve, though single readings can be large or run the other way. Potency is the fitted concentration of half-maximal effect.

The opening two records, ahead of the listing:
SMILES	Marburg entry inh	SARS PLP yeast	LASV entry inh	Cruzain inh Det	NS1 inh	Cruzain noTriton	2A StopGo	RE007 growth inh
CCN1CCN(CCOc2ccc(Br)cc2C)CC1	.	0%	.	.	-1%	.	-22%	-7%
CC(=O)NC(CC(=O)N(Cc1ccccc1)c1ccc(C)cc1)c1ccccc1 (stereo not given)	-17%	2%	3%	.	-4%	.	2%	6%

The list itself, from the first entry:
SMILES	Marburg entry inh	SARS PLP yeast	LASV entry inh	Cruzain inh Det	NS1 inh	Cruzain noTriton	2A StopGo	RE007 growth inh
CCN1CCN(CCOc2ccc(Br)cc2C)CC1	.	0%	.	.	-1%	.	-22%	-7%
CC(=O)NC(CC(=O)N(Cc1ccccc1)c1ccc(C)cc1)c1ccccc1 (stereo not given)	-17%	2%	3%	.	-4%	.	2%	6%
Cc1sc(-c2ccccn2)nc1OC(=O)c1ccc(F)cc1F	-1%[46.1 µM]	-25%	-7%	.	.	.	8%	?
CC(=O)Nc1ccc(S(=O)(=O)Nc2ccccc2C(=O)N2CCCC2)cc1	3%[46.1 µM]	1%	-3%	.	5%	.	11%	-2%
CN(Cc1cnn(C)c1)C(=O)C1CCC(=O)N(Cc2cccc(F)c2)C1 (stereo not given)	.	1%	.	.	12%	.	20%	3%
Cc1c(C(=O)Nc2ccc(F)c(F)c2)oc2ccc(S(=O)(=O)N(C)C3CCCCC3)cc12	.	.	-27%[46.1 µM]	0.0%	.	?	?	.
CC(=O)Nc1ccc(S(=O)(=O)NC2C3(C)CCC(C3)C2(C)C)cc1 (stereo not given)	.	2%	.	.	11%	.	-5%	1%
CCC(C)c1ccccc1OCC(=O)Nc1ccc(S(=O)(=O)Nc2cc(C)on2)cc1 (stereo not given)	7%[46.1 µM]	.	11%[46.1 µM]	-27%	.	19%	-17%	.
Cn1c(=O)c2c(SCc3cccnc3)nc(CC(C)(C)C)nc2n(C)c1=O	.	0%	.	-11%	-131%	-4%	-50%	-10%
CCC(=O)c1ccc(OCC(=O)OCC(=O)NCC2CCCO2)cc1 (stereo not given)	26%[46.1 µM]	-2%	27%[46.1 µM]	.	17%	.	-11%	-5%
O=C(CSc1ccc2ccccc2c1)NC1CCCc2ccccc21 (stereo not given)	-21%	10%	-2%	-2.2%	-8%	-4%	7%	-7%
COc1ccccc1/C=C/C(=O)/C=C/c1ccccc1O	?	-6%	?	.	-117%	.	28%	-13%
O=C(NCc1ccco1)c1ccc(Br)c(S(=O)(=O)N2CCCCC2)c1	?	3%	?	-0.4%	-44%	-3%	.	9%
CCC(=O)Nc1ccc(C(=O)CSc2nnc(-c3ccccc3F)n2C2CC2)cc1	?	-3%	-2%	-9.2%	15%	-3%	-18%	12%
CC(=O)CCc1c(C)c2cccc(C)c2[nH]c1=O	10%	-1%	6%	3.1%	1%	-1%	.	0%
COc1ccc(CCNC(=O)c2ccc(NC3=NC4CS(=O)(=O)CC4S3)cc2)cc1OC (stereo not given)	.	2%	.	.	3%	.	23%	0%
COCc1nnc(NC(=O)c2cc3ccccc3o2)s1	?	-3%	?	.	-62%	.	1%	-29%
Cc1nccn1CCCNC(=O)CC1C(=O)NCCN1Cc1ccc(Cl)c(F)c1 (stereo not given)	.	0%	.	.	0%	.	3%	-14%
CCn1cc(C(=O)N(C)Cc2ccccc2)c(=O)c2cc(S(=O)(=O)N3CCc4ccccc4C3)ccc21	8%[46.1 µM]	.	4%[46.1 µM]	-8.4%	.	?	26%	.
Cc1cc(C)cc(NC(=O)CN(C)S(=O)(=O)c2cnc[nH]2)c1	12%	23%	0%	0.2%	0%	14%	6%	3%
COCCN(C(=O)COC(=O)c1nc(Cl)ccc1Cl)c1c(N)n(Cc2ccccc2)c(=O)[nH]c1=O	10%	-1%	9%	.	.	.	-12%	2%
O=[N+]([O-])c1ccccc1C=NNC(=S)NN=Cc1ccccc1[N+](=O)[O-]	?	.	?	.	.	.	36%[activator]	-10%
CCOC(=O)N1CC(=O)Nc2ccc(Br)cc2C1c1ccccc1 (stereo not given)	.	-1%	.	.	6%	.	-26%	-12%
C=C(C)c1cccc(C(C)(C)NC(=O)N2CCN(C)CC2)c1	3%	-8%	23%	4.3%	-10%	-7%	-13%	-2%
O=C(Nc1ccc2c(c1)OCO2)c1cccn(Cc2cccc([N+](=O)[O-])c2)c1=O	.	.	18%[46.1 µM]	-1.2%	.	2%	-15%	.
Following part.
SMILES	Marburg entry inh	SARS PLP yeast	LASV entry inh	Cruzain inh Det	NS1 inh	Cruzain noTriton	2A StopGo	RE007 growth inh
O=S(=O)(NCCOCCNS(=O)(=O)c1ccccc1)c1ccccc1	2%	-2%	2%	2.6%	1%	5%	-9%	5%
Cc1c(C(=O)NCCc2ccc(Cl)cc2)sc2nc3n(c(=O)c12)CCC3	.	?	.	.	-20%	.	12%	0%
COc1ccc(NC(=O)[C@@H](NC(=O)c2ccccc2)C(C)C)cc1S(=O)(=O)N1CCCCC1	0.11µM*	-6%	-2%	-1.7%	9%	4%	-5%	-1%
Cc1ccc(Cn2c(C(=O)O)c(CNC3CCCCC3)c3ccc(C)cc32)cc1	.	.	-1%[46.1 µM]	-2.0%	.	-5%	51%[activator]	.
Cc1ccc(NC(=O)c2ccc(-c3cccc(Cl)c3C)o2)cc1	.	.	12%[46.1 µM]	-8.8%	.	-16%	7%	.
O=C(O)c1ccc(N(Cc2ccccc2)S(=O)(=O)c2ccccc2)cc1	19%&19%[46.1 µM]	1%&-1%	-2%[46.1 µM]	.	4%&-2%	.	-4%&-4%	1%&-10%
CCn1cc(C(=O)NCC(OC)OC)c(=O)c2cc(S(=O)(=O)N(C)C3CCCCC3)ccc21	.	-1%	.	.	-10%	.	3%	3%
CCc1c(C)nc2ncnn2c1N1CCCC(C(=O)NCc2ccco2)C1 (stereo not given)	-5%	-14%	9%	-2.4%	-7%	-12%	-29%	-3%
CC1=C(c2ccc(C)c(C)c2)S(=O)(=O)N=C1N1CCC(C(=O)NCCc2ccco2)CC1	.	.	-14%[46.1 µM]	-3.6%	.	16%	14%	.
COc1ccc(/C=N/NC(=O)c2ccccc2Cl)cc1CSc1nc2ccccc2s1	?	-14%	13µM*	-8.3%	14%	16µM*	9%	8%
O=C(Nc1ccccc1)c1cn(-c2ccccc2)nc1-c1ccccc1	0%[46.1 µM]	.	?	-4.8%	.	29%	-1%	.
Cc1ccc(-c2c(CN3CCN(c4cccc(C)c4)C(C)C3)csc2C)cc1 (stereo not given)	.	.	-1%[46.1 µM]	-1.3%	.	15%	?	.
Cc1cc([N+](=O)[O-])ccc1NC(=S)NC1CCCC1	.	-1%	.	.	9%	.	44%[activator]	5%
Cc1ccc(OCCC(=O)OCc2csc(CC(=O)Nc3ccccc3C)n2)cc1	2%	-9%	-2%	.	-8%	.	-4%	-1%
Cc1cc(C)cc(N(CCC(=O)Nc2nnc(C3CC3)s2)S(=O)(=O)c2ccc(Cl)cc2)c1	?	2%	-16%	-5.7%	7%	-4%	0%	9%
Nc1ccccc1NC1=CC(=O)CC(c2ccco2)C1 (stereo not given)	-2%	-2%	3%	-2.1%	10%	-17%	-8%	0%
CCOC(=O)C1C(c2cc(OC)c(OC)c(OC)c2)NC(=S)NC1(O)C(F)(F)F (stereo not given)	4%	6%	3%	10%	7%	5%	-12%	-1%
CC(C)(C)C(=O)O/N=C1\CCS(=O)(=O)c2sccc21	3%[46.1 µM]	1%	?	.	1%	.	-7%	0%
Cc1[nH]nc(-c2ccc(OCc3cnn(-c4ccccc4)c3)cc2O)c1Oc1ccc(F)cc1	-4%	4%	-2%	8.2%	19%	?	-23%	10%
CCOc1c2ccc(C(=O)N[C@H](C)C3CCCCC3)cc2nn1CC	.	-2%	.	-11%	9%	-6%	-4%	2%
CC(=O)c1ccc(OCCCC(=O)NCCc2ccccc2)cc1	.	6%	.	.	9%	.	32%	-8%
CSc1nccc(-c2nn(-c3ccc(C)cc3)ccc2=O)n1	.	-2%	?	-1.5%	-3%	2%	-7%	7%
COc1ccc2c(c1)O[C@H](c1ccc3c(c1)OCO3)[C@@H](OC(=O)Nc1ccc(C)c(Br)c1)C2=O	13%&13%[14.2 µM]	.	?	-2.8%	.	?	.	.
CC(=O)N1CCN(C(=O)c2cc(-c3ccc(C)o3)nc3ccccc23)CC1	20%[46.1 µM]	-18%	-29%	.	.	.	2%	-17%
Cc1ccc(Cn2cc(CCC(=O)O)c3ccccc32)cc1	.	0%	.	.	-63%	.	-26%	22%

Retrieved one by one from the entries so far (2):
SMILES	Marburg entry inh	SARS PLP yeast	LASV entry inh	Cruzain inh Det	NS1 inh	Cruzain noTriton	2A StopGo	RE007 growth inh
Cc1nccn1CCCNC(=O)CC1C(=O)NCCN1Cc1ccc(Cl)c(F)c1 (stereo not given)	.	0%	.	.	0%	.	3%	-14%
CCOC(=O)C1C(c2cc(OC)c(OC)c(OC)c2)NC(=S)NC1(O)C(F)(F)F (stereo not given)	4%	6%	3%	10%	7%	5%	-12%	-1%

New compounds follow:
SMILES	Marburg entry inh	SARS PLP yeast	LASV entry inh	Cruzain inh Det	NS1 inh	Cruzain noTriton	2A StopGo	RE007 growth inh
CCc1ccc(C)c(OC(=O)c2cncc(Br)c2)c1	.	2%	.	.	8%	.	-3%	-4%
COC(=O)c1ccc(N2C(=O)CC(Sc3n[nH]c(C)n3)C2=O)cc1 (stereo not given)	-5%	-16%	?	-0.4%	-75%	-21%	0%	-93%
Cc1ccc(NS(=O)(=O)c2ccccc2[N+](=O)[O-])cc1S(=O)(=O)N1CCCCC1	-16%[46.1 µM]	3%	-19%[46.1 µM]	.	.	.	26%	0%
NC(=O)CC1C(=O)N(c2ccc(Cl)cc2)C(=S)N1NC(=O)c1cccc(F)c1 (stereo not given)	?	0%	2%[46.1 µM]	.	-1%	.	4%	2%
CC1CC(Nc2ccccc2N)=CC(=O)O1 (stereo not given)	18%	8%	17%	1.9%	1%	-6%	30%	4%
CCOc1ccccc1C1C(C#N)=C(N)Oc2cc(C)n(Cc3ccccn3)c(=O)c21 (stereo not given)	0%	0%	-18%	1.2%	8%	-1%	15%	4%
